# rRNA inh HTS = inhibitors of bacterial rRNA selective over humanized ribosomes. E. coli WT GFP vs humanized-ribosome RFP mutants, fluorescence, 24 h; stronger effect = lower value; DMSO median 0, no signal -100. GFP signal change (wild-type ribosome), % (no concentration beside the values). hit rate 1.6% among 350,000. AID 720706;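 active = significant combined selectivity score with lowered wild-type GFP, culture density cut under 30%, mutant RFP and density less affected; inactive = any of these conditions unmet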; note: one replicate is shown; some compounds called inactive have numbers as strong as hits
# FGF22 binding = binders of recombinant human FGF22 by thermal shift; Q9HCT0; SYPRO orange fluorescence; percent of sucrose octasulfate shift, DMSO zero; calls only at 9.99 µM; hit rate 1.5% among 340,000;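 active = melting point raised past a set limit in the mean and every replicate; three in four hits are not shown here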
# Target sequence (Q9HCT0 whole entry, looked up): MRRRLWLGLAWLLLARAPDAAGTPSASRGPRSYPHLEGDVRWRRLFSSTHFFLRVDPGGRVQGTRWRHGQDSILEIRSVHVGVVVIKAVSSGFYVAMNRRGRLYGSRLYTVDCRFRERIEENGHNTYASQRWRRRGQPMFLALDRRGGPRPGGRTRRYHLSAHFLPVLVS
# rRNA inh HTS OD600 = also measured in rRNA inh HTS; calls as there; OD600 change, %; measured here: OD600 growth;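 optical density of the mix in the first replicate; 0 = DMSO median and -100 = no signal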
# rRNA inh HTS RFP = also measured in rRNA inh HTS; calls as there; RFP signal change, %; measured here: RFP humanized mutant strains;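 first replicate; 0 = DMSO median and -100 = no signal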
# Starred values were filed as active, the others as inactive; i = inactive. These rows are one share of the data; count on the stated rates, not on these rows.
SMILES,rRNA inh HTS,rRNA inh HTS OD600,rRNA inh HTS RFP,FGF22 binding
COc1ccc2c3c([nH]c2c1)[C@H](CO)N(C(=O)c1cnccn1)CC31CN(C(=O)c2cnccn2)C1,-2,2,0.4,i
C[C@@H]1CN([C@H](C)CO)C(=O)Cc2cc(NC(=O)c3ccncc3)ccc2O[C@@H]1CN(C)C(=O)Nc1cccc2ccccc12,2,0,0.3,i
C[C@@H]1CN([C@@H](C)CO)S(=O)(=O)c2ccc(C#CC3CC3)cc2O[C@H]1CN(C)C(=O)Cc1ccncc1,-4,-10,1.8,i
COC(=O)[C@]12C[C@H](CC(=O)NCc3cccs3)C(=O)N(CCC3=CCCCC3)C1=C[C@H](COCc1ccccc1)O[C@@H]2C,1,-8,5.0,i
COc1ccc(NC(=O)N(C)C[C@H]2OCCCC[C@@H](C)Oc3ccc(NS(C)(=O)=O)cc3C(=O)N([C@H](C)CO)C[C@H]2C)cc1,-5,-5,-0.1,i
C[C@@H]1CN([C@H](C)CO)C(=O)c2cc(NC(=O)Nc3ccc(C(F)(F)F)cc3)ccc2O[C@@H]1CN(C)C,-3,-6,-0.8,i
COc1ccc(CN(C)C[C@@H]2Oc3ccc(NS(=O)(=O)c4ccc(C)cc4)cc3CC(=O)N([C@H](C)CO)C[C@H]2C)cc1,0,-1,4.5,i
CN1CCCCN2[C@@H](CO)[C@@H](c3ccc(-c4ccccc4)cc3)[C@@H]2C1,1,5,-1.6,i
COc1ccc(S(=O)(=O)N(C)C[C@@H]2Oc3ccc(NC(=O)NC4CCCCC4)cc3CC(=O)N([C@@H](C)CO)C[C@H]2C)cc1,-6,-16,2.3,i
C[C@H](CO)N1C[C@H](C)[C@@H](CN(C)Cc2ccc(Cl)c(Cl)c2)Oc2ccc(NC(=O)C3CC3)cc2CC1=O,-2,-41,13,i
CCCC(=O)N1CC2(C1)CN(C(=O)CC1CC1)[C@H](CO)c1c2c2ccc(OC)cc2n1C,-5,-3,0.8,i
C[C@@H]1CCCCO[C@@H](CN(C)C(=O)Nc2ccc3c(c2)OCO3)[C@@H](C)CN([C@@H](C)CO)C(=O)c2cc(NC(=O)CCCN(C)C)ccc2O1,3,3,-2.7,i
C[C@@H]1CCCCO[C@H](CN(C)S(=O)(=O)c2cn(C)cn2)[C@H](C)CN([C@@H](C)CO)C(=O)c2cc(NC(=O)c3ccncc3)ccc2O1,1,7,-0.6,i
Cc1ccc(S(=O)(=O)N(C)C[C@@H]2Oc3c(NC(=O)Nc4ccc(F)cc4)cccc3C(=O)N([C@H](C)CO)C[C@@H]2C)cc1,-6,-8,-3.4,i
C[C@@H]1CN([C@H](C)CO)C(=O)c2cccc(NC(=O)c3ccc(-c4nccs4)cc3)c2O[C@H]1CN(C)C(=O)Nc1ccc(C(F)(F)F)cc1,-5,-5,-0.5,i
CCNC(=O)C[C@H]1CC[C@@H]2[C@H](COC[C@H](O)CN2C(=O)Nc2cccc(OC)c2)O1,1,9,-2.5,i
COc1cccc(S(=O)(=O)N[C@@H]2CC[C@H](CCNC(=O)Nc3cc(F)ccc3F)O[C@H]2CO)c1,-5,-6,-2.9,i
CCCN1[C@H](C(=O)NCCCN2CCOCC2)[C@@H](CO)[C@@H]2Cn3c(ccc(-c4cccnc4)c3=O)[C@@H]21,-4,-6,-2.7,i
COc1cccc(-c2cc(CNC(=O)[C@@H](Cc3ccccc3)NC(=O)[C@H]3O[C@@H](n4cnc(C(N)=O)n4)[C@H](O)[C@@H]3O)no2)c1,4,8,1.6,i
Cc1noc(C)c1NC(=O)Nc1ccc2c(c1)CC(=O)N([C@H](C)CO)C[C@H](C)[C@@H](CN(C)C(=O)Nc1ccc3c(c1)OCO3)O2,4,1,0.9,i

# Random excerpt: 6 records from the list
SMILES,rRNA inh HTS,rRNA inh HTS OD600,rRNA inh HTS RFP,FGF22 binding
C[C@@H]1CN([C@@H](C)CO)S(=O)(=O)c2ccc(C#CC3CC3)cc2O[C@H]1CN(C)C(=O)Cc1ccncc1,-4,-10,1.8,i
C[C@@H]1CN([C@H](C)CO)C(=O)Cc2cc(NC(=O)c3ccncc3)ccc2O[C@@H]1CN(C)C(=O)Nc1cccc2ccccc12,2,0,0.3,i
COc1ccc(NC(=O)N(C)C[C@H]2OCCCC[C@@H](C)Oc3ccc(NS(C)(=O)=O)cc3C(=O)N([C@H](C)CO)C[C@H]2C)cc1,-5,-5,-0.1,i
C[C@@H]1CN([C@H](C)CO)C(=O)c2cc(NC(=O)Nc3ccc(C(F)(F)F)cc3)ccc2O[C@@H]1CN(C)C,-3,-6,-0.8,i
COc1ccc2c3c([nH]c2c1)[C@H](CO)N(C(=O)c1cnccn1)CC31CN(C(=O)c2cnccn2)C1,-2,2,0.4,i
CN1CCCCN2[C@@H](CO)[C@@H](c3ccc(-c4ccccc4)cc3)[C@@H]2C1,1,5,-1.6,i

# Later entries
SMILES,rRNA inh HTS,rRNA inh HTS OD600,rRNA inh HTS RFP,FGF22 binding
CO[C@@H]1CC[C@@H]2CCOc3c(C#N)cccc3C(=O)N(C)CCCC(=O)N(C)C[C@H]1O2,-1,6,-2.6,i
C[C@@H]1CN([C@@H](C)CO)C(=O)c2cc(NC(=O)Nc3cccc4ccccc34)ccc2O[C@@H]1CN(C)C(=O)Nc1ccccc1,-1,2,-2.6,i
CO[C@H]1CN(C)C(=O)c2ccc(NC(=O)c3ccno3)cc2OC[C@H](C)N(S(C)(=O)=O)C[C@H]1C,6,14,-0.9,i
Cc1noc(C)c1NC(=O)Nc1ccc2c(c1)C(=O)N([C@@H](C)CO)C[C@@H](C)[C@@H](CN(C)S(=O)(=O)c1cccs1)OCCCC[C@H](C)O2,-4,-3,1.3,i
COc1ccc2c3c(n(C)c2c1)[C@H](CO)N(C(=O)Nc1c(C)noc1C)CC31CCN(CC2CC2)CC1,6,14,-1.5,i
COC(=O)C[C@@H]1CC[C@H]2[C@@H](COC[C@@H](O)CN2CCC(F)(F)F)O1,5,3,1.2,i
CCc1noc2cc(-c3ccccc3)n(C)c(=O)c12,0,6,-0.3,i
CN(C)C(=O)C[C@H]1CC[C@H](NC(=O)C2CCOCC2)[C@H](CO)O1,1,-7,-0.2,i
CN1C[C@H]2[C@@H](c3ccccc31)[C@@H](CO)N2Cc1ccccc1,2,-2,-0.6,i
C[C@@H]1CN([C@H](C)CO)C(=O)c2cc(-c3ccc(C(=O)N(C)C)cc3)cnc2O[C@@H]1CN(C)Cc1ccc(C(=O)O)cc1,7,6,-4.5,i
C[C@@H]1CCCCO[C@H](CN(C)C(=O)C2CCCCC2)[C@@H](C)CN([C@@H](C)CO)C(=O)c2cc(NC(=O)Nc3ccc(F)cc3)ccc2O1,1,4,-3.5,i
C[C@@H]1CN([C@H](C)CO)C(=O)Cc2cc(NS(=O)(=O)c3ccc(F)cc3)ccc2O[C@@H]1CN(C)C(=O)Nc1ccc(F)cc1,4,7,1.1,i
Cc1cccc(S(=O)(=O)N[C@@H]2CC[C@@H](CCNC(=O)c3cnccn3)O[C@@H]2CO)c1,-1,4,-4.0,i
COc1ccc(NC(=O)Nc2ccc3c(c2)[C@@H]2C[C@@H](CC(=O)NCc4ccccc4F)O[C@@H](CO)[C@@H]2O3)cc1,-3,5,-0.8,i
C[C@@H]1CN([C@H](C)CO)S(=O)(=O)c2ccc(C3=CCCC3)cc2O[C@H]1CN(C)Cc1ccccc1F,-2,5,-3.3,i
C[C@H](CO)N1C[C@H](C)[C@H](CN(C)S(=O)(=O)c2ccc(F)cc2)Oc2ccc(NC(=O)CCC(F)(F)F)cc2C1=O,-4,-7,-0.4,i
CC(C)NC(=O)N(C)C[C@@H]1Oc2ccc(NC(=O)CCC(F)(F)F)cc2C(=O)N([C@H](C)CO)C[C@H]1C,4,4,-0.5,i
O=C(c1ccccn1)N1CC[C@@H]2[C@H](CO)Nc3ccc(C#Cc4cccnc4)cc3[C@@H]21,-4,3,-2.6,i
Cc1noc(C)c1S(=O)(=O)Nc1ccc2c(c1)CC(=O)N([C@H](C)CO)C[C@@H](C)[C@H](CN(C)C(=O)Nc1ccc3c(c1)OCO3)O2,1,5,-0.5,i
C[C@@H]1CN([C@@H](C)CO)C(=O)Cc2cc(NC(=O)Nc3ccc(C(F)(F)F)cc3)ccc2O[C@@H]1CN(C)CC1CC1,-7,-50,22,i
C[C@H]1CN([C@@H](C)CO)C(=O)Cc2cc(NS(C)(=O)=O)ccc2O[C@H]1CN(C)C,1,0,0.0,i
CCNC(=O)C[C@@H]1CC[C@H](NC(=O)C2CCOCC2)[C@H](CO)O1,1,1,-1.1,i
C[C@@H]1CCCCO[C@H](CN(C)C(=O)Nc2cccc3ccccc23)[C@H](C)CN([C@@H](C)CO)C(=O)c2cc(NS(C)(=O)=O)ccc2O1,-2,-11,-0.5,i
COc1ccccc1CN1CC[C@@H]2[C@H]1c1cc(-c3cccc(F)c3)ccc1N[C@@H]2CO,-56,-77,-9.9,i
C[C@@H]1CN([C@H](C)CO)C(=O)c2cc(NC(=O)Nc3ccccc3)ccc2O[C@@H]1CN(C)C,2,6,-2.3,i
CC(C)(C)[S@](=O)N1Cc2cc(C(=O)NCc3ccncc3)nc(-c3cccc(-c4ccncc4)c3)c2[C@@H]1CCO,-4,-2,2.6,i
CC(C)NC(=O)N(C)C[C@H]1Oc2ncc(C#CCc3ccccc3)cc2C(=O)N([C@@H](C)CO)C[C@@H]1C,-2,3,-0.7,i
C[C@@H]1CN([C@H](C)CO)C(=O)c2cc(N(C)C)ccc2O[C@@H]1CN(C)Cc1ccc(Oc2ccccc2)cc1,-54,-73,-8.4,i
C[C@@H]1CN([C@@H](C)CO)C(=O)c2cc(NS(C)(=O)=O)ccc2O[C@H]1CN(C)Cc1ccccc1,2,4,-2.0,i
O=C(C[C@@H]1CC[C@@H](NC(=O)c2ccccc2)[C@@H](CO)O1)NCc1ccncn1,-1,4,-0.5,i
C[C@@H]1CN([C@@H](C)CO)S(=O)(=O)c2ccc(/C=C/c3ccccc3)cc2O[C@H]1CN(C)C(=O)c1ccccc1,-6,-10,-1.0,i
CNC(=O)C[C@H]1CC[C@H]2[C@@H](COc3ccc(NC(=O)Nc4cccc(C#N)c4)cc3C(=O)N2C)O1,-4,-17,5.0,i
COc1ccccc1-c1cn(CC[C@H]2CC[C@H](NC(=O)NC(C)C)[C@H](CO)O2)nn1,-2,-10,0.0,i
CC(=O)N1[C@H](CNC(=O)C2CC2)[C@@H](c2ccc(-c3ccc(F)cc3)cc2)[C@@H]1CO,-6,-12,2.0,i
CCCN1[C@@H]2c3cccc(=O)n3C[C@@H]2[C@@H](CO)[C@@H]1C(=O)NC1Cc2ccccc2C1,-1,-6,-0.9,i
Cn1cnc(S(=O)(=O)N2C[C@H](O)COC[C@@H]3O[C@H](CC(=O)NCc4cc(F)cc(F)c4)CC[C@H]32)c1,4,4,-1.6,i
C[C@H](NC(=O)C[C@H]1C[C@H]2c3cc(NC(=O)C4CCOCC4)ccc3O[C@H]2[C@H](CO)O1)c1ccccc1,9,4,-1.4,i
CC(C)NC(=O)Nc1ccc2c(c1)C(=O)N([C@@H](C)CO)C[C@H](C)[C@H](CN(C)S(=O)(=O)c1cn(C)cn1)O2,8,10,2.0,i
C[C@H](CO)N1C[C@H](C)[C@H](CN(C)CC2CC2)Oc2c(NC(=O)c3ccncc3)cccc2C1=O,2,3,0.4,i
O=C(Nc1ccc2c(c1)[C@@H]1C[C@@H](CC(=O)N3CCOCC3)O[C@@H](CO)[C@@H]1O2)C1CCOCC1,3,8,-2.6,i

# Exported with bars between the fields: entries from further up.
structure | rRNA inh HTS | rRNA inh HTS OD600 | rRNA inh HTS RFP | FGF22 binding
Cn1cnc(S(=O)(=O)N2C[C@H](O)COC[C@@H]3O[C@H](CC(=O)NCc4cc(F)cc(F)c4)CC[C@H]32)c1 | 4 | 4 | -1.6 | i
C[C@H](NC(=O)C[C@H]1C[C@H]2c3cc(NC(=O)C4CCOCC4)ccc3O[C@H]2[C@H](CO)O1)c1ccccc1 | 9 | 4 | -1.4 | i

# Next section:
SMILES,rRNA inh HTS,rRNA inh HTS OD600,rRNA inh HTS RFP,FGF22 binding
COc1ccccc1C(=O)N1C[C@H]2[C@@H](c3ccccc31)[C@H](CO)N2Cc1ccc(F)cc1,-5,-11,0.8,i
CO[C@H]1CN(C)C(=O)c2cccc(C#N)c2OC[C@H]2O[C@H](CC[C@H]2OC)CCN(C)C(=O)[C@@H]1C,3,2,-4.3,i
O=C(C[C@@H]1CC[C@@H]2[C@H](COC[C@@H](O)CN2C(=O)CCN2CCCCC2)O1)NCc1ccncc1,-4,-7,-0.9,i
CN1C(=O)c2cc(NC(=O)C3CCCC3)ccc2OC[C@@H]2O[C@@H](CC(=O)NCC(F)(F)F)CC[C@@H]21,4,8,-1.4,i
CC(=O)N1CCCCN2[C@H](C1)[C@H](c1ccc(-c3cccc(C(=O)N(C)C)c3)cc1)[C@@H]2CO,0,6,-1.8,i
CO[C@@H]1CN(C)C(=O)c2cc(NC(=O)C3CCC3)ccc2OC[C@H](C)N(Cc2nccs2)C[C@@H]1C,-3,6,-1.9,i
CO[C@@H]1CN(C)C(=O)c2cc(NC(=O)NC3CCCCC3)ccc2OC[C@H](C)NC[C@H]1C,0,-3,1.3,i
CN(C)C(=O)C[C@H]1CC[C@@H]2[C@H](COc3ccc(NC(=O)NCc4ccccc4)cc3C(=O)N2C)O1,3,-3,-2.7,i
O=C(CN1CCOCC1)NCC[C@@H]1CC[C@H](NC(=O)Nc2ccc(C(F)(F)F)cc2)[C@@H](CO)O1,1,0,-1.5,i
COc1cccc(C(=O)Nc2ccc3c(c2)OC[C@H](C)N(C(C)=O)C[C@@H](C)[C@@H](OC)CN(C)C3=O)c1,-1,-3,2.0,i
